D2 agonist: activates the human D2 dopamine receptor | P14416 | DiscoveRx PathHunter D2 beta-arrestin, luminescence, 90 min; 100% = 57 uM dopamine signal | activation, % (no concentration beside the values) | hit rate 0.084% among 360,000 | AID 624465; in the data active = activation above about 40%; inconclusive = about 15% to 40%; inactive = below about 15%; also: compound concentration not given in the record; the text of the record calls up to 30% inactive
Target sequence (P14416 whole entry, looked up): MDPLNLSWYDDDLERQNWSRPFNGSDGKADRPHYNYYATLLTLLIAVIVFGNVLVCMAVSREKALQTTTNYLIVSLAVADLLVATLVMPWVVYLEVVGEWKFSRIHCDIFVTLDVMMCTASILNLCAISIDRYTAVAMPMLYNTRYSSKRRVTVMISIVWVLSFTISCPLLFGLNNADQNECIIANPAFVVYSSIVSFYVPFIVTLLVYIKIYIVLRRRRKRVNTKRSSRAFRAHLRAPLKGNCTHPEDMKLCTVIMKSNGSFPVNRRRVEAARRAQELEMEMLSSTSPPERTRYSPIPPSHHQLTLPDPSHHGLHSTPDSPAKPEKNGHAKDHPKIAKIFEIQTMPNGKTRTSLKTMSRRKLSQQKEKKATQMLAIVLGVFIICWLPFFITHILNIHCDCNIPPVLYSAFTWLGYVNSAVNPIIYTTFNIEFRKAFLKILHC
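Agonist mode: compounds alone added to overnight-plated D2 PathHunter cells for 90 min at 37 C, with 57 uM final dopamine (EC100) defining full response. Beta-arrestin recruitment detected by chemiluminescent reagent, read after 1 h at ambient temperature.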
TRPML1 ag: agonists of human TRPML1 channel. Q9GZU1. TRPML1-expressing cells, Ca2+ dye fluorescence, FDSS; host cell line not named in the record; reference of the full effect not given here. activation, % (test concentration not listed). hit rate 0.12% among 410,000. AID 624414; in the data active = activation above about 50%; inconclusive = about 30% to 50%; inactive = below about 30%; also: 0% is about no effect; the text of the record puts the active cut at 80%
Target sequence (Q9GZU1 whole entry, looked up): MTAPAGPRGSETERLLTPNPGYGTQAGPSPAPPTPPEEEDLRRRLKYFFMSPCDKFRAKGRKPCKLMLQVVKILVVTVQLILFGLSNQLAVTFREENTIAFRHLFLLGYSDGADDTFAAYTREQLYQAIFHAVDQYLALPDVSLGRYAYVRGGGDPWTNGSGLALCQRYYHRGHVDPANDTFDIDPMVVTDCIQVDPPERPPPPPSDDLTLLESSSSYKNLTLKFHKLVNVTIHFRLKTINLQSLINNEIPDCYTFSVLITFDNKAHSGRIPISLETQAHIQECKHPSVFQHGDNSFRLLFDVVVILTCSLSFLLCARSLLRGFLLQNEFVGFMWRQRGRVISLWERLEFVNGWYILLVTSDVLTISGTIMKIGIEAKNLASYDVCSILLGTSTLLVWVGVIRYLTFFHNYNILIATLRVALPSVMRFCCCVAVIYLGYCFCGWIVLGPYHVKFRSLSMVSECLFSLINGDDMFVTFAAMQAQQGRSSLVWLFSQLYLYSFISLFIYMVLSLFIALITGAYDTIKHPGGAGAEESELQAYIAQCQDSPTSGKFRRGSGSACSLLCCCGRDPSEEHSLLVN
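Tet-induced TRPML1-DL cells, 1,500 per well, cultured overnight, were loaded with a no-wash Ca2+ dye for 45–90 min. Calcium fluorescence was recorded on the FDSS for 110 s after compound addition, before the EC80 agonist (4 uM 54-4) was added.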
Six1-Eya2 blk: Six1/Eya2 interaction inhibition. activity change, % (no concentration beside the values). Q15475+O00167. AlphaScreen GST-Six1/His-Eya2 binding, biochemical; hits give low values; control for the full effect not named in the record. hit rate 0.56% among 360,000; in the data active = activity change below about -65%; inconclusive = about -30% to -65%; inactive = above about -30%; also: % is scaled to controls: 0 for no effect and ±100 for the full control effect; compound concentration not given in the record
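Compounds are tested against tagged Six1 and Eya2 proteins bridged by glutathione donor and nickel acceptor beads; after a one-hour incubation at 37 °C without light, AlphaScreen emission is recorded.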
D2 PAM: positive allosteric modulators of human D2 dopamine receptor; DiscoveRx D2 beta-arrestin cells, luminescence, 90 min; 100% = 57 uM dopamine signal; potentiation, % (no concentration beside the values); hit rate 0.23% among 360,000; active = potentiation of 50% or more; inconclusive = 30% to 50%; inactive = 30% or less;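 also: compound concentration not given in the record; tested on top of an EC20 dose of dopamine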
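PathHunter D2 cells, attached overnight at 37 deg C, received compound in DMSO plus dopamine at EC20 (50 nM final) for 90 min at 37 deg C. Beta-arrestin recruitment was read as luminescence after 1 h with detection reagent at ambient temperature.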
TRPML1 inh: human mucolipin-1 channel inhibition; activity change, negative = inhibition, % (test concentration not listed); Q9GZU1; hit rate 0.02% among 390,000; AID 624415; TRPML1-inducible cells, Ca2+ dye fluorescence, FDSS; hits give low values; inhibition of EC80 agonist-evoked calcium signal; in the data active means activity change below about -50%; inconclusive means about -30% to -50%; inactive means above about -30%;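 also: stimulus is agonist 54-4 at its EC80 concentration; % is scaled to controls: 0 for no effect and ±100 for the full control effect; compound concentration not given in the record; the text of the record puts the active cut at -80%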
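Tet-induced TRPML1-DL cells loaded with Ca8 no-wash calcium dye were read kinetically on FDSS. Compound addition was followed by EC80 agonist 54-4 (4 uM final); inhibition was read over 110 s.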
PINK1 modulator: PINK1 expression modulation | PINK1 immunofluorescence, high-content cytometry, 24 h | Potency, µM (doses to about 76.6 µM), for the others: at the top dose activation (PINK1 increase), most hits filed as activators | hit rate 0.2% among 410,000; active = well fitted activation curve with a large enough effect; inconclusive = small, poorly fitted or top-dose-only effect; inactive = flat fitted curve, though single readings scatter; cell line not stated here;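 also: potency is read from the fitted curve at half-maximal effect; % of control where 0% means no effect; nearly all actives have a fitted effect of over 65% in size; a mitochondrial uncoupler was the plate control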
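PINK1 protein level read as immunofluorescence by microplate cytometer in a fixed, stained stable cell line after 24 h exposure to five compound concentrations, with CCCP as control.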
* marks the source's active call; other numbers are inactive results; u = inconclusive; x = no result given; & = joins results of further samples; [ ] = remark or other dose.

SMILES	D2 agonist	TRPML1 ag	Six1-Eya2 blk	D2 PAM	TRPML1 inh	PINK1 modulator
CC(NC(=O)c1ccccc1Cl)c1ccc(-n2ccnc2)cc1 (stereo not given)	0.0	-0.1	6.3	19.1	11.0	-0.8%
CCCC(=O)O[C@]1(C(=O)CO)CC[C@H]2[C@@H]3CCC4=CC(=O)CC[C@]4(C)[C@H]3[C@@H](O)C[C@@]21C	-3.3	-0.1	-4.4	14.3	22.8	1.4%
COc1ccc(N2C(=S)NC3CS(=O)(=O)CC32)cc1 (stereo not given)	-6.5	0.3	10.4	-7.1	-9.3	0.0%
CCC(=O)N1CCCc2cc(S(=O)(=O)N3CCC(C(=O)NC4CCCCC4)CC3)ccc21	x	0.9	x	x	-27.9	-1.5%
COC(=O)c1ccc(OC(=O)CCS(=O)(=O)c2ccc(C)cc2)cc1	1.9	-1.0	-15.9	15.3	6.0	3.5%
COc1ccc2c(c1)c(C(C)=O)c(C)n2-c1ccccc1	0.3	0.5	1.7	-6.5	-7.9	-0.9%[38.3 µM]
COc1ccc(N2C(=O)CC(N3CCC(O)(c4cccc(C(F)(F)F)c4)CC3)C2=O)cc1 (stereo not given)	-3.7	-0.7	-0.5	-1.6	2.8	-0.3%
COc1ccc(Nc2nc3ccccc3nc2NS(=O)(=O)c2ccc(NC(C)=O)cc2)cc1	-2.4	0.0	-0.8	-9.1	-26.1	-0.6%
O=C(c1ccc(S(=O)(=O)Nc2ccccc2)cc1)N1CCOCC1	0.5	-0.7	8.2	3.8	-12.7	6.7%
CCOc1cc(C(=O)NCc2ccncc2)cc(OCC)c1OCC	-3.8	-0.2	0.1	-16.5	-1.5	0.1%[38.3 µM]
O=C(O)CCCCCNC(=O)/C=C/c1ccco1	0.5	0.7	-3.1	1.4	-2.7	-0.6%
CCc1ccc(CN2CCc3nc(N4CCN(CC)CC4)ncc3C2)cc1	x	1.1	x	x	18.3	-1.1%
COC(=O)CSc1nnc(-c2ccoc2C)n1-c1ccc(C)cc1	0.2	5.2	-0.9	-11.9	4.7	-1.2%
Cc1cc(C)n(CCc2nc3c4ccccc4nc(N4CCN(c5ccccc5)CC4)n3n2)n1	x	-0.9	x	x	16.4	-0.6%
COc1cccc(CN2CCNC(=O)C2CC(=O)NCCCn2ccnc2)c1 (stereo not given)	1.0	1.3	3.6	2.5	26.3	6.6%
CC(C)CCc1noc(CN(C)CC2CCN(Cc3ccccc3)CC2)n1	-4.9	0.8	-2.4	-9.6	-5.5	2.5%
CCC(=O)c1ccc(OCC(=O)OCC(=O)NC2CCCC2)cc1	-0.5	0.0	7.3	-3.5	-1.0	-0.4%
CSc1ncc(C(=O)NCc2cccc(C)c2)c(-c2ccccc2)n1	x	1.4	x	x	-1.7	3.4%
COc1ccc(OCC(=O)OCC(=O)N2CC(=O)Nc3ccccc32)cc1	1.0	0.1	0.8	1.1	-8.5	1.3%
Cc1ccc(-c2c[nH]c(=S)n2-c2ccccc2)cc1	1.5	2.1	-14.4	0.1	-0.9	-1.1%
CCCn1c(N)c(N(CCOC)C(=O)/C=C/c2cccc(Cl)c2)c(=O)[nH]c1=O	-1.9	-0.5	1.6	-5.1	-1.8	0.3%
CCCC(c1nnnn1CS(=O)(=O)c1ccc(C)cc1)N1CCN(c2ccc(F)cc2)CC1 (stereo not given)	-2.5	0.1	-0.4	-12.4	16.6	-0.4%
Cc1csc2c(NC3CCN(Cc4ccccc4)CC3)ncnc12	-1.5	0.9	-5.7	-3.9	-17.9	-0.1%
Cc1ccc(C)c(N2CCN(C(=O)CCC(=O)Nc3ccc4nc(N5CCCCC5)cc(C)c4c3)CC2)c1	x	-0.8	x	x	16.4	0.2%
CCCN(CC(=O)Nc1ccccc1C)C(=O)C1CCN(S(=O)(=O)c2cccc(C(F)(F)F)c2)CC1	-3.2	0.9	-0.5	-13.2	4.7	0.3%
COc1cc2nc3n(c(=O)c2cc1OC)-c1cc2ccccc2cc1C(=O)NC3CC(C)C (stereo not given)	1.7	x	-26.5	x	x	3.1%
C/C(=C\c1ccccc1)C(=O)N1CCN(Cc2ccc3c(c2)OCO3)CC1	1.9	-0.4	-3.2	-4.9	2.7	0.8%
CC(C)CCNC(=O)NC(=O)COC(=O)/C=C/c1cccc([N+](=O)[O-])c1	-1.5	0.5	-1.3	1.4	-1.2	0.2%
C/C=C/c1cc(CN2CCN(c3ccccc3)CC2)c(O)c(OC)c1	5.0	2.0	-23.1	2.8	32.0	-1.4%
COc1ccc(Cl)cc1NC(=O)c1cn(C2CCCCC2)c(=O)c2c1c1ccccc1n2C	x	-0.2	x	x	16.8	0.1%

4 entries out of the list, sorted by length of the SMILES, low to high.
SMILES	D2 agonist	TRPML1 ag	Six1-Eya2 blk	D2 PAM	TRPML1 inh	PINK1 modulator
Cc1csc2c(NC3CCN(Cc4ccccc4)CC3)ncnc12	-1.5	0.9	-5.7	-3.9	-17.9	-0.1%
C/C(=C\c1ccccc1)C(=O)N1CCN(Cc2ccc3c(c2)OCO3)CC1	1.9	-0.4	-3.2	-4.9	2.7	0.8%
COc1ccc(Cl)cc1NC(=O)c1cn(C2CCCCC2)c(=O)c2c1c1ccccc1n2C	x	-0.2	x	x	16.8	0.1%
Cc1ccc(C)c(N2CCN(C(=O)CCC(=O)Nc3ccc4nc(N5CCCCC5)cc(C)c4c3)CC2)c1	x	-0.8	x	x	16.4	0.2%

Continuation.
SMILES	D2 agonist	TRPML1 ag	Six1-Eya2 blk	D2 PAM	TRPML1 inh	PINK1 modulator
CS(=O)(=O)N(CCc1ccccc1)CC(=O)NCc1ccco1	-0.9	-0.6	-14.0	-10.7	51.5	1.2%
Cc1cccc(-n2c(C)c(-c3ccccc3)[nH]c2=S)c1	-9.3	0.0	-15.0	-7.7	-14.7	0.1%
CN(Cc1cccc(F)c1)C(=O)C1CC(=O)N(c2ccc3c(c2)OCCO3)C1 (stereo not given)	0.2	-0.6	4.7	-14.3	-8.5	-0.3%
C=C1CCN([C@H](C(=O)NCc2cc(OC)c(OC)c(OC)c2)C(C)C)S(=O)(=O)c2ccccc21	-1.9	-0.1	1.7	-2.6	19.7	-0.6%
Cc1cccc(N(C)S(=O)(=O)c2c[nH]c3ccc([N+](=O)[O-])cc23)c1	-0.8	3.6	14.5	-3.2	14.6	u
CCC1(CC)C(=O)NC(=O)NC1=NCCc1c[nH]c2ccccc12	-1.8	0.0	0.3	3.7	-9.1	-0.3%[38.3 µM]
COc1ccc(NS(=O)(=O)c2cc(-c3cnc(C4CC4)o3)ccc2C)cc1	2.5	1.6	-12.3	-11.0	57.7	-1.1%
N#Cc1ccc(CN2CCN(C(=O)c3ccc(S(=O)(=O)N4CCCCCC4)cc3)CC2)cc1	-3.5	-0.3	3.2	0.7	-8.9	0.1%
Cc1ccc(C(=O)NCC(C)NC(=O)c2ccc(C)c([N+](=O)[O-])c2)cc1[N+](=O)[O-] (stereo not given)	-5.8	1.1	-20.8	-28.9	79.6	0.2%
ON=C(CCc1ccccc1)c1ccccc1	1.7	0.1	9.5	-3.9	-11.9	11.2%
CCc1cc(=O)oc2c3c(cc(OCC(=O)NC4CC4)c12)OC(C)(C)CC3	7.8	x	-0.6	-12.9	x	-0.2%
COc1cc(OC)cc(C(=O)NCCN2C(=O)S/C(=C\c3cccs3)C2=O)c1	-6.3	4.3	-3.3	-0.9	4.0	-0.1%
O=C(Nc1cc(-c2ccccc2)nn1-c1c(Cl)cccc1Cl)c1ccc(F)cc1	-0.4	0.9	-5.5	1.3	-1.7	3.7%
COc1ccc(N2CCN(C(=O)c3cn(C)c4ccc(S(=O)(=O)N5CCOCC5)cc4c3=O)CC2)cc1	5.2	3.6&0.1	-4.5	-4.6	5.6&10.5	-0.9%&1.8%
CC(=O)Nc1cc2nn(-c3ccccc3)nc2cc1Cl	1.0	0.6	4.0	23.2	-6.0	-1.2%
Clc1ccc(OCc2nnnn2-c2ccccc2)cc1	-1.9	3.4	17.9	-20.7	1.0	-0.1%
CCCCCCCCS(=O)C1CCS(=O)(=O)C1 (stereo not given)	-1.4	-0.5	-0.5	-4.2	-3.0	3.0%
COc1cc(OC)c(NC(=O)Cn2cnc3nc4c(cc3c2=O)CCCC4)cc1Cl	x	-0.2	x	x	-13.6	2.9%
Cc1noc(C)c1CSc1nc2sc(C)c(C)c2c(=O)n1C1CCCC1	2.2	u	-1.0	-11.2	-1.8	x
CSc1ccccc1C(=O)OCC(=O)Nc1ccc(N2CCOCC2)cc1	-1.8	0.6	-13.1	-8.1	6.0	5.2%
Cc1ccc(C)c(CSC2=NCCN2C(=O)Cc2ccc([N+](=O)[O-])cc2)c1	0.0	0.4	-13.3	-16.1	57.6	0.4%
CCCS(=O)(=O)N1CCN(C(=O)c2ccccc2F)CC1	0.9	-0.3	6.5	-3.8	12.0	0.7%
CC(C)COc1ccc(C(=O)Nc2ccc(S(=O)(=O)Nc3ncccn3)cc2)cc1	x	1.2	x	x	15.1	0.5%
COc1ccccc1C(=O)c1c(C)c(CCC#N)n2ccccc12	-3.0	0.3	-4.5	-5.5	-11.3	0.3%
N#Cc1nc(-c2ccco2)oc1N1CCC(C(N)=O)CC1	-3.5	-0.3	-4.3	-3.6	14.3	0.1%
CCC(C(=O)NC1CCCCC1)N(Cc1cccs1)C(=O)CCC(=O)Nc1cc(C)on1 (stereo not given)	1.1	0.8	1.0	-5.0	11.5	-2.2%
O=C(CCN1C(=O)c2ccccc2C1=O)Nc1cccc(S(=O)(=O)NC2=NCCC2)c1	0.2	0.3	-1.5	-6.6	17.1	-0.7%
Cn1c(=NC(=O)CSCC(=O)N2CCCC2)sc2ccccc21	-3.1	-0.9	-0.2	-6.2	-0.7	1.7%
C/C(=N/NC(=O)CNC(=O)c1cccnc1)c1ccc(Cl)cc1	-2.1	-0.3	4.1	-10.9	6.9	0.6%
COc1ccc(C2C(C(=O)N3CCCC3)CC(=O)N2c2ccc(OC)cc2)cc1 (stereo not given)	-2.4	1.9	4.5	-5.1	12.2	u
CCOC(=O)c1sc(Nc2ccc(OCC)cc2)nc1C	-0.9	1.0	-1.7	-1.1	-3.4	9.3%
CC(C)(C)S(=O)(=O)N1C[C@H]2CC/C=C\C/C(c3ccccc3)=C\2[C@@H]1CCO	-1.7	-0.4	2.6	x	44.5	-0.1%
c1ccc2c(c1)NC(c1ccncc1)n1c-2nc2ccccc21 (stereo not given)	0.1	3.3	-1.4	-0.3	8.1	-0.9%
CC(=O)c1c(C)[nH]c(C(=O)COC(=O)c2nccnc2N)c1C	7.0	-0.8	-2.2	0.4	-5.9	-0.9%
C[C@@H]1CN([C@@H](C)CO)S(=O)(=O)c2ccc(Br)cc2O[C@H]1CN(C)C(=O)C1CCOCC1	-5.9	-0.5	8.0	-13.4	-16.8	3.5%
CN(Cc1cnn(C)c1)Cc1nc(-c2ccc(Cl)cc2)no1	0.2	0.0	-1.6	-14.5	-19.7	-0.5%
CC(NC(=O)COC(=O)COc1cccc2c1OC(C)(C)C2)c1ccccc1 (stereo not given)	-0.5	-0.6	0.3	-6.6	-1.0	1.6%
COC(=O)CN1C(=O)N/C(=C/c2ccc(OC)c(C)c2OC)C1=O	-5.8	1.2	5.8	-3.4	-14.7	0.1%

High-throughput results deposited in PubChem by National Center for Advancing Translational Sciences (NCATS).
